Sfp inh: blocks B. subtilis Sfp PPTase activity. Q9F4F7. Biochemical Sfp PPTase activity, qHTS. Potency, µM, for inactives: max response, negative = inhibition, usual class: inhibitors. 310,000 tested, 3.5% active; active = well fitted inhibition curve with a large enough effect; inconclusive = small, poorly fitted or top-dose-only effect, or another doubt; inactive = no such curve, though single readings can be large or run the other way;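 also: the enzyme is Sfp with the accession as filed and its product quenches rhodamine fluorescence; potency is read from the fitted curve at half-maximal effect; 0% = enzyme reaction without inhibitor and -100% = no enzyme wells; top concentration of the series not given in the record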
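Step 1, compound plus 15 nM Sfp-PPTase, 15 min, room temperature. Step 2, add rhodamine-CoA (5 uM) and BHQ-2-YbbR (12.5 uM). Step 3, read 525/598 nm fluorescence at 0 and 30 min.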
PINK1 modulator: PINK1 expression modulation | PINK1 immunofluorescence, high-content cytometry, 24 h | Potency, µM (top dose mostly 76.6 µM), for inactives: at the highest dose activation (PINK1 increase), actives largely listed as activators | 410,000 tested, 0.2% active | AID 624263; active = well fitted activation curve with a large enough effect; inconclusive = small, poorly fitted or top-dose-only effect; inactive = flat fitted curve, though single readings scatter; cell line not stated here;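 also: potency is read from the fitted curve at half-maximal effect; % of control where 0% means no effect; nearly all actives have a fitted effect of over 65% in size; a mitochondrial uncoupler was the plate control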
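Cells are seeded, rested 12 hours, then given compound at five concentrations or DMSO for 24 hours. After fixation, blocking and antibody staining, PINK1 amount and mitochondrial localization are scored; CCCP serves as control.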
TRPV1 potentiator: enhances activation of the human vanilloid receptor TRPV1; TRPV1-expressing cells, Fluo-8 calcium influx, capsaicin EC20 potentiation; host cell line not named in the record; control for the full effect not named in the record; potentiation, % at 8.33 µM; 320,000 tested, 0.02% active; AID 540277; active means potentiation above 80%; inconclusive means 30% to 80%; inactive means below 30%; also: 0% is about no effect
Target sequence (Q8NER1 whole entry, looked up): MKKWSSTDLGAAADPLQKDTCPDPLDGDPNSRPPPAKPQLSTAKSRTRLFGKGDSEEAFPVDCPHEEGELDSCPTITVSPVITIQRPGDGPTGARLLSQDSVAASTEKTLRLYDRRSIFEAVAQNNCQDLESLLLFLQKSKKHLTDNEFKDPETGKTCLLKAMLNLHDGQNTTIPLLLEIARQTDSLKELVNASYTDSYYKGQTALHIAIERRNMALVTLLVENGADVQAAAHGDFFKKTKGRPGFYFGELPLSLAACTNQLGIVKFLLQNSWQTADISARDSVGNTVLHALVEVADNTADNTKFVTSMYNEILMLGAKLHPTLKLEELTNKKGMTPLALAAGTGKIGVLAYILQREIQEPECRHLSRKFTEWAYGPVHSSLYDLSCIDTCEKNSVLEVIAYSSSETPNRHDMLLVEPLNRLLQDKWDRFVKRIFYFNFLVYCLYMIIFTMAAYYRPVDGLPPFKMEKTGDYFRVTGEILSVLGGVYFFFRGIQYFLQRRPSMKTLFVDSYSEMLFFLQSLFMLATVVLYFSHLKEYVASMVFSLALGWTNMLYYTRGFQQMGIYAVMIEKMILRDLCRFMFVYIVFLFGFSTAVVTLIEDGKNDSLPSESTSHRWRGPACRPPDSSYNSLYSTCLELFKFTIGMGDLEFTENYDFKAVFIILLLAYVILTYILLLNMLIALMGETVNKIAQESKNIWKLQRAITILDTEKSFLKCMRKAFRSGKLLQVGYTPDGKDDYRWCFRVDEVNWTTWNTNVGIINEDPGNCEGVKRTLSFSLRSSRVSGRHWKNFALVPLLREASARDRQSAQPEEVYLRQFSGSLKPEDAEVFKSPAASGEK
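TRPV1-expressing cells were cultured overnight at 35.5C and loaded with Fluo-8 calcium dye for 40 to 90 min at room temperature. After a 10 s baseline, compound was added and calcium influx was read kinetically for 3 min (ex 480/em 520 nm).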
TRPML1 blocker: human mucolipin-1 channel inhibition; Q9GZU1; 390,000 tested, 0.02% active; activity change, negative = inhibition, % (test concentration not listed); TRPML1-inducible cells, Ca2+ dye fluorescence, FDSS; stronger effect = lower value; inhibition of EC80 agonist-evoked calcium signal; AID 624415; in the data active means activity change below about -50%; inconclusive means about -30% to -50%; inactive means above about -30%;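 also: stimulus is agonist 54-4 at its EC80 concentration; % is scaled to controls: 0 for no effect and ±100 for the full control effect; compound concentration not given in the record; the text of the record puts the active cut at -80%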
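TRPML1-DL cells, Tet-induced overnight (~16 h, 37 °C) at 1,500 cells/well, were loaded with Ca8 no-wash dye plus quencher for 45-90 min at room temperature. Compounds were pinned during FDSS kinetic reading; agonist 54-4 at EC80 (4 uM final) then added.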
TRPML1 ag: activates the human TRPML1 channel; Q9GZU1; TRPML1-expressing cells, Ca2+ dye fluorescence, FDSS; host cell line not named in the record; reference of the full effect not given here; activation, % (test concentration not listed); 410,000 tested, 0.12% active; in the data active = activation above about 50%; inconclusive = about 30% to 50%; inactive = below about 30%; also: 0% is about no effect; the text of the record puts the active cut at 80%
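Tet-induced TRPML1-DL cells, 1,500 per well, cultured overnight, were loaded with a no-wash Ca2+ dye for 45–90 min. Calcium fluorescence was recorded on the FDSS for 110 s after compound addition, before the EC80 agonist (4 uM 54-4) was added.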
Menin-MLL FL inh: displaces fluorescein MLL peptide from human menin; Fluorescence polarization, fluorescein-MLL peptide displacement from menin; FP activity change, % at 61.4 µM; 290,000 tested, under 10 active; AID 1766; inconclusive = falling polarisation curve, or a change in total fluorescence; inactive = total fluorescence flat and polarisation flat or rising; no compound was filed as active; the % refers to the polarisation; negative = inhibition;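 also: % of control where 0% means no effect; inhibitors lower the polarisation; unlabelled MLL peptide was the positive control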
ClpP mod: qHTS Assay for Activators of ClpP. ATP-dependent Clp protease proteolytic subunit (Bacillus subtilis (strain 168)), P80244. purified B. subtilis ClpP, FRET peptide cleavage, 20 min. Potency, µM (titrated, usually from 57.5 µM), for the others: at the top dose activity change, negative = active. 340,000 tested, 1.9% active; active = well fitted falling curve with a large enough effect; inconclusive = small, poorly fitted or top-dose-only effect; inactive = no such curve, though single readings can be large or run the other way; also: potency is read from the fitted curve at half-maximal effect; the source files actives as falling curves though it sought activators and does not explain the sign; nearly all actives have a fitted effect of over 65% in size; many hits overshoot -100%
Target sequence (P80244 whole entry, looked up): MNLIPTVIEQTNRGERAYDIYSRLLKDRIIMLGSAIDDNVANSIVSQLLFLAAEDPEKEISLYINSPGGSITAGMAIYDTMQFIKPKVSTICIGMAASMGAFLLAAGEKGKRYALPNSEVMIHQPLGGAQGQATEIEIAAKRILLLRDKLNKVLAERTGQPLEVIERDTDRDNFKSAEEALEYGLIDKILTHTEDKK
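Purified B. subtilis ClpP, 10 microg/mL final in Tris/HCl pH8 with KCl, BSA, glycerol and Tween-20, cleaved an Abz/nitrotyrosine-quenched decapeptide. Fluorescence (ex 320, em 430) was read at 0 and 20 min at room temperature. Delta was normalized to 5.8 microM ADEP and DMSO/no-enzyme controls.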
Numbers without * were called inactive; ? = inconclusive; . = no result given; & = joins results of further samples; [ ] = remark or other dose.

Molecule,Sfp inh,PINK1 modulator,TRPV1 potentiator,TRPML1 blocker,TRPML1 ag,Menin-MLL FL inh,ClpP mod
Cn1c(=NC(=O)C2CCCCC2)sc2cc([N+](=O)[O-])ccc21,19%,1.7%,-1,28,-0.2,0.9,.
Nc1cc(-c2cccc(F)c2)nn1S(=O)(=O)c1cccc2nsnc12,0%,5.3%,4,-2,-0.5,0.9,1.6%
Cc1cccc(NC(=O)C2CCN(C(=O)c3ccccc3C)CC2)n1,.,0.7%,4,-2,-0.8,.,-0.5%
CC(C)C[C@@H](CNCC(=O)[C@H](CC(=O)O)NC(=O)c1[nH]cnc1C(=O)N[C@H](CN)CC(C)C)NC(=O)c1nc[nH]c1C(=O)N[C@@H](C)C(=O)O,.,1.1%,.,21,-0.4,.,-0.9%
O=C(C[C@@H]1C[C@@H]2c3cc(NS(=O)(=O)c4ccc(F)cc4)ccc3O[C@@H]2[C@@H](CO)O1)NC1CCCCC1,.,3.5%,.,7,0.1,.,-1.0%
O=C(COc1ccc(Cl)cc1)N1CCN(S(=O)(=O)c2cc(F)ccc2F)CC1,.,0.2%,.,-5,0.5,.,-2.2%
CCOc1ccc(OCCSc2nc3ccccc3n2CC(=O)O)cc1,11%,2.0%,16,.,.,-3.4,0.2%
CC1=C(C(=O)OCC(C)C)C2(O)C(=O)c3ccccc3C2(O)N1 (stereo not drawn),-18%,0.9%,10,-19,-0.5,-0.8,-0.7%
COCCn1cnc2c1-c1ccc(OC)c(c1)OC/C=C\COc1cccc-2c1,-25%,.,.,-6,1.2,4.9,.
CC(C(=O)Nc1cc(C(F)(F)F)ccc1N1CCOCC1)N1C(=O)C2CC=CCC2C1=O (stereo not drawn),2%,0.1%,15,-19,-0.5,1.4,-3.8%
Cc1cc(NC(=O)c2ccc([N+](=O)[O-])cc2Cl)ccc1NC(=O)c1ccco1,-6%,2.3%,3,-4,-0.5,3.6,0.5%
Cc1ccccc1NC(=O)CSc1ccncc1,15%,-0.3%,-26,6,-0.4,6.4,.
COc1cc(C2C3=C(COC3=O)Oc3cc4c(cc32)OCO4)cc(OC)c1OC (stereo not drawn),.,11%&7.3%,.,5,1.5&-0.6,.,4.5%&1.1%
c1ccc(CCC2CCCCN2Cc2nc(C3CC3)no2)cc1 (stereo not drawn),6%,1.1%,-18,-20,0.0,2.1,-2.6%
CC(C)CC1Nc2ncnc(N3CCN(c4ccccn4)CC3)c2N(Cc2ccc(Cl)cc2)C1=O (stereo not drawn),.,7.0%&19%,.,69&65,0.7&0.8,.,?
O=S1(=O)N[C@@H](Cc2ccccc2)COc2ccc(Cl)cc21,.,0.2%,.,3,0.5,.,4.4%
O=C(O)CC1=C(c2ccc(F)cc2)CCC1=O,20%,-1.6%,7,14,0.6,1.3,1.1%
COc1ccc2nc(SCC(=O)N3CCNC3=O)[nH]c2c1,12%,-4.9%[38.3 µM],-2,-1,-0.5,-1.3,0.9%
CCCCn1nc(C(=O)Oc2ccc3c(C)cc(=O)oc3c2)c2ccccc2c1=O,3%,1.0%,-1,13,1.2,1.2,-18%
Cc1ccccc1OCCCCn1c(CCNC(=O)C(C)(C)C)nc2ccccc21,.,-0.9%,.,53,0.8,.,1.8%
C=CCN1CCc2cc(O)c(O)cc2C(c2ccccc2)C1 (stereo not drawn),.,0.3%,8,-13,-0.2,2.1,0.0%
Cc1cccc(NC(=O)c2ccc(Cl)c(S(=O)(=O)N3CCc4ccccc43)c2)n1,.,2.9%,-2,80,2.0,.,-3.2%
CCOC(=O)Nc1ccc2c(c1)Sc1ccccc1N2C(=O)CCN1CCOCC1,6%,0.7%,3,5,-0.5,0.9,1.1%
Cc1ccc(S(=O)(=O)N2CCCCC2)cc1NC(=O)CSc1ncccn1,.,-0.2%,1,-21,0.3,.,-2.5%
COc1cccc(C2CC(=O)Nc3cc4c(cc32)OCCO4)c1OC (stereo not drawn),.,12%,.,6,0.0,.,1.4%
CCN(CC)C(=O)c1ccc(CS(=O)(=O)c2ccc(Br)cc2)cc1,11%,-0.6%,17,-15,0.7,-0.1,0.0%
COC(=O)c1sc(NC(=S)NC(=O)c2cc(OC)c(OC)c(OC)c2)nc1C,-17%,1.5%,8,.,.,-0.8,1.4%
Cc1cc(C)c(C(=O)Cn2nc(C(=O)O)c3ccccc3c2=O)cc1C,14%,14%,-25,-14,2.0,4.6,.
CC1COCC(C)N1C1=C(Cl)C(=O)c2ccccc2C1=O (stereo not drawn),.,-0.1%,.,-10,-0.3,.,1.6%
COc1ccc(OCC(=O)Nc2ccc(S(=O)(=O)N3CCCCCC3)cc2)cc1,16%,2.2%,14,-3,-0.8,7.8,-4.4%
CCCOc1ccc(C2NC(=S)NC(c3ccccc3)=C2C(=O)Nc2ccc(C)cc2)cc1OC (stereo not drawn),-1%,0.3%,-14,-27,1.4,1.3,-0.3%
Cc1nnc(SCCn2c(N3CCC(C)CC3)nc3c2c(=O)[nH]c(=O)n3C)s1,-11%,13%[38.3 µM],-1,10,0.0,0.3,1.6%
O=[N+]([O-])c1ccccc1/C=C/c1ccc2ccccc2n1,-11%,5.5%,-10,-17,1.8,0.4,.
Cc1ccc(N2C(=O)CC(Nc3cccc4ccccc34)C2=O)cc1 (stereo not drawn),4%,0.0%,-11,2,0.1,-5.3,0.4%
CC(=O)c1ccc(N2CCN(C(=O)c3cn(Cc4ccccc4)nc3-c3cccnc3)CC2)c(F)c1,.,2.2%,3,-7,-0.7,.,-3.7%
Cc1cc(C(=O)NC2CCCCC2)c(C)n1-c1ccc(F)cc1,7%,3.0%,-12,1,-0.5,7.7,1.5%
Cc1c(C(=O)OCC(=O)N(C)Cc2ccccc2)oc2ccccc12,.,1.5%,-5,6,1.6,.,-16%
CCNC(=O)C1(C)CCCN(Cc2ccccc2-c2ccccc2)C1 (stereo not drawn),.,0.7%,.,.,-0.8,.,-0.7%
COc1ccccc1/C=C\C(=O)NCC(=O)N/N=C/c1ccc(O)cc1O,23%,-0.9%,8,-15,0.3,5.6,.
CCOc1ccc(Cl)cc1-c1cc(C(=O)NC2CCCCC2)[nH]n1,.,-0.1%,.,.,-0.3,.,-16%

Entries shown so far that contain a furan ring, fused or not (2):
Molecule,Sfp inh,PINK1 modulator,TRPV1 potentiator,TRPML1 blocker,TRPML1 ag,Menin-MLL FL inh,ClpP mod
Cc1cc(NC(=O)c2ccc([N+](=O)[O-])cc2Cl)ccc1NC(=O)c1ccco1,-6%,2.3%,3,-4,-0.5,3.6,0.5%
Cc1c(C(=O)OCC(=O)N(C)Cc2ccccc2)oc2ccccc12,.,1.5%,-5,6,1.6,.,-16%

(more compounds)
Molecule,Sfp inh,PINK1 modulator,TRPV1 potentiator,TRPML1 blocker,TRPML1 ag,Menin-MLL FL inh,ClpP mod
Cc1cc(O)c(N=Cc2cc3c(cc2[N+](=O)[O-])OCO3)cc1C,.,2.6%,.,2,1.1,.,-1.6%
COc1ccc(CNC(=O)CC2C(=O)NCCN2CC(C)(C)C)c(OC)c1 (stereo not drawn),16%,1.0%,3,-18,0.2,-0.9,-3.9%
Cc1ccc(S(=O)(=O)CCNC(=O)Cc2ccccc2)cc1,22%,-1.5%,6,-8,0.7,-0.1,.
CC(=O)Nc1ccc(S(=O)(=O)N2CCC(C(=O)c3ccc(F)cc3)CC2)cc1,6%,2.3%,-4,4,-0.4,3.9,.
COC(=O)NNC(=S)Nc1ccc(Br)cc1,-11%,-1.0%,4,3,3.8,-0.5,1.1%
CC1CC(C)CN(S(=O)(=O)c2ccc(C(=O)OCC(=O)Nc3ccccc3)cc2)C1 (stereo not drawn),.,-1.3%,.,9,-1.4,.,-0.4%
COc1ccc(-c2nc3ccccc3o2)cc1NC(=O)c1ccc(-c2ccc(Br)cc2)o1,.,2.0%,.,19,0.1,.,-19%
c1ccc2c(c1)sc1nnnn12,11%,-0.4%,7,5,1.0,2.0,-1.6%
Nc1n[nH]c2cccc(Cl)c12,9%,1.0%,3,24,1.4,5.6,0.1%
COc1ccc(C)cc1NS(=O)(=O)c1cn(C)nc1C,17%,1.8%,8,-1,0.2,-1.9,.
CC1(C(=O)NCc2ccc(Cl)cc2)CCN1C(=O)c1cccc(F)c1 (stereo not drawn),.,1.1%,.,.,-1.2,.,0.1%
COCc1cc(=O)[nH]c(N2CCN(c3ccccc3OC)CC2)n1,-3%,-0.7%,4,19,1.3,2.9,.
COc1ccc(-c2ccc(CN3C(CC(C)C)C(=O)N(Cc4cn(CC5CCCCC5)nn4)CCS3(=O)=O)cc2)cc1 (stereo not drawn),.,12%,.,-2,1.1,.,0.0%
O=C(CCS(=O)(=O)c1ccccc1)NC1CCCC1,15%,-1.1%,-8,-24,0.1,.,3.1%
Cc1ccccc1NC(=S)N(CCc1c(C)[nH]c2ccc(F)cc12)Cc1cccnc1,8%,-0.7%,-17,-10,0.6,4.5,-0.8%
CC(C)CCn1c(N2CCN(Cc3ccccc3)CC2)nc2c1c(=O)[nH]c(=O)n2C,13%,.,-3,.,.,6.6,.
Cc1cccc(S(=O)(=O)NCCC(=O)OC(C)C(=O)NC(=O)NC2CCCCC2)c1 (stereo not drawn),10%,-2.5%,1,16,1.3,1.8,32µM*
CC1=CC(C)(C)n2c(O)c(C3=NC(=S)NC3=O)c3cc(OC(=O)c4cccc5ccccc45)cc1c32,-18%,?,6,42,-0.1,-2.7,0.3%
COC(=O)c1c(Oc2ccc(OC)cc2)nnc(-c2ccccc2)c1-c1ccccc1,.,0.9%,.,-16,-0.6,.,-3.9%
CCOC(=O)c1ccc(NC(=S)N(CCCN2CCCC(C)C2)Cc2ccco2)cc1 (stereo not drawn),-20%,0.7%,-15,7,-1.2,.,0.4%
COc1ccccc1N(CC(=O)NCc1ccccc1)S(=O)(=O)c1cccs1,.,1.6%,.,32,-0.2,.,-0.8%
CC1CCCN(C(=O)Cc2cccc3ccccc23)C1 (stereo not drawn),12%,5.9%,-7,0,-0.7,-0.7,0.4%
